Source: PubChem BioAssay (National Center for Advancing Translational Sciences (NCATS))
Six1-Eya2 blk = Six1/Eya2 interaction inhibition; AlphaScreen GST-Six1/His-Eya2 binding, biochemical; hits give low values; control for the full effect not named in the record; activity change, % (concentration not given with the values); actives 0.56% (n = 360,000); in the data active = activity change below about -65%; inconclusive = about -30% to -65%; inactive = above about -30%; also: % is scaled to controls: 0 for no effect and ±100 for the full control effect
Target sequence (O00167 whole entry, looked up): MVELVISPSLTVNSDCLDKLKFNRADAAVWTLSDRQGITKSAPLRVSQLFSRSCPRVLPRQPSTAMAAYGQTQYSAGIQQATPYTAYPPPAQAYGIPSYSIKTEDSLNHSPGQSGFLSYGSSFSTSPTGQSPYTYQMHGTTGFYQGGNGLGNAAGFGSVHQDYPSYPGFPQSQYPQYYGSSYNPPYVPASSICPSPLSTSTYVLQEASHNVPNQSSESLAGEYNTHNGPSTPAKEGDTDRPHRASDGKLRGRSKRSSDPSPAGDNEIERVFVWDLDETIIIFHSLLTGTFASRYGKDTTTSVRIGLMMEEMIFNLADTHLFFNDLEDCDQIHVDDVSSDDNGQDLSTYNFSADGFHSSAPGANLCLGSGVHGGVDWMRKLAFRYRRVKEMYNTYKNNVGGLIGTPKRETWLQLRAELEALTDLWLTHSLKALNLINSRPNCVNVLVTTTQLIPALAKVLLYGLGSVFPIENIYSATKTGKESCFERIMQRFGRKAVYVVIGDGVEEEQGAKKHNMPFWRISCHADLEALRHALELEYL
Target sequence (Q15475 whole entry, looked up): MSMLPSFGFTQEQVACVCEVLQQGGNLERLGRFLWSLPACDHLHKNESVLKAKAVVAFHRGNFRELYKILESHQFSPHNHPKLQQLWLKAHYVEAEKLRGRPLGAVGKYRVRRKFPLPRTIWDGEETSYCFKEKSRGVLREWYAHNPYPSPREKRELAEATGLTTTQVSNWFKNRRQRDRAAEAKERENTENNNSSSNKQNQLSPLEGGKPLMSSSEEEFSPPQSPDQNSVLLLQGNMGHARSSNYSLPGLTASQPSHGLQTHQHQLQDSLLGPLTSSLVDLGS
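AlphaScreen with GST-Six1 and His-Eya2 (5X mix: 250 nM and 500 nM), glutathione donor and nickel acceptor beads; buffer 50 mM Tris pH 8.0, 300 mM NaCl, 1 mM TCEP; 1 h at 37 C in the dark.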
TRPML1 agonist = human mucolipin-1 channel agonism; TRPML1-expressing cells, Ca2+ dye fluorescence, FDSS; host cell line not named in the record; reference of the full effect not given here; activation, % (test concentration not listed); actives 0.12% (n = 410,000); AID 624414; in the data active = activation above about 50%; inconclusive = about 30% to 50%; inactive = below about 30%; also: 0% is about no effect; the text of the record puts the active cut at 80%
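Calcium fluorescence on an FDSS kinetic reader gave the read-out. Tet-induced TRPML1-DL cells were plated overnight, dye-loaded (Ca8 with quencher, 45-90 min, room temperature, dark), then read 110 s after compound addition, and again 110 s after 4uM final 54-4 (EC80).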
TRPML1 inh = human mucolipin-1 channel inhibition; Q9GZU1; TRPML1-inducible cells, Ca2+ dye fluorescence, FDSS; hits give low values; inhibition of EC80 agonist-evoked calcium signal; activity change, negative = inhibition, % (concentration not given with the values); actives 0.02% (n = 390,000); in the data active means activity change below about -50%; inconclusive means about -30% to -50%; inactive means above about -30%;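 also: stimulus is agonist 54-4 at its EC80 concentration; % is scaled to controls: 0 for no effect and ±100 for the full control effect; compound concentration not given in the record; the text of the record puts the active cut at -80%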
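Tet-induced TRPML1-DL cells loaded with Ca8 no-wash calcium dye were read kinetically on FDSS. Compound addition was followed by EC80 agonist 54-4 (4 uM final); inhibition was read over 110 s.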
PINK1 modulator = PINK1 expression modulation; PINK1 immunofluorescence, high-content cytometry, 24 h; Potency, µM (doses to about 76.6 µM), without a hit: at the highest dose activation (PINK1 increase), usual class: activators; actives 0.2% (n = 410,000); AID 624263; active = well fitted activation curve with a large enough effect; inconclusive = small, poorly fitted or top-dose-only effect; inactive = flat fitted curve, though single readings scatter; cell line not stated here;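 also: potency is read from the fitted curve at half-maximal effect; % of control where 0% means no effect; nearly all actives have a fitted effect of over 65% in size; a mitochondrial uncoupler was the plate control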
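PINK1 protein, normally rapidly degraded, was detected by immunofluorescence after 24 hour compound treatment of a stable cell line. Titration data (5 concentrations) came from laser-scanning cytometry, with CCCP-treated wells as controls.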
D2 agonist = activates the human D2 dopamine receptor. DiscoveRx PathHunter D2 beta-arrestin, luminescence, 90 min; 100% = 57 uM dopamine signal. AID 624465. activation, % (no concentration beside the values). P14416. actives 0.084% (n = 360,000); in the data active = activation above about 40%; inconclusive = about 15% to 40%; inactive = below about 15%; also: compound concentration not given in the record; the text of the record calls up to 30% inactive
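Agonist mode: compounds alone added to overnight-plated D2 PathHunter cells for 90 min at 37 C, with 57 uM final dopamine (EC100) defining full response. Beta-arrestin recruitment detected by chemiluminescent reagent, read after 1 h at ambient temperature.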
CtBP-E1A inh = inhibitors of CtBP/E1A interaction. AlphaScreen GST-E1A/His-CtBP binding, 1536-well; hits give low values; control for the full effect not named in the record. activity change, % (no concentration beside the values). AID 651724. actives 0.49% (n = 340,000); in the data active means activity change below about -65%; inconclusive means about -30% to -65%; inactive means above about -30%; also: % is scaled to controls: 0 for no effect and ±100 for the full control effect; compound concentration not given in the record
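GST-E1A and His-tagged CtBP (125 nM each as 5X stock) were preincubated with pin-transferred compound for 2 h at 37 °C in the dark, then glutathione donor and nickel acceptor beads were added for 1 h before AlphaScreen reading.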
* = called active by the depositor; [ ] = remark or other dose.

`Cc1ccc(SCc2nc3ccccc3n2CC(=O)Nc2c(C)cccc2C)cc1` gave Six1-Eya2 blk -1, TRPML1 agonist -0.4, TRPML1 inh 0, PINK1 modulator 2.1%[38.3 µM], D2 agonist -1.2 and CtBP-E1A inh -2.
Screening CCC(=O)NC(=S)N1CCN(c2ccc([N+](=O)[O-])cc2Cl)CC1 returned Six1-Eya2 blk -2, TRPML1 agonist 0.5, TRPML1 inh -6, PINK1 modulator 8.7%[38.3 µM], D2 agonist -3.6 and CtBP-E1A inh -2.
`COCCCN(C(=S)Nc1c(C)cc(C)cc1C)C(C)c1ccccn1` (stereo not given) gave Six1-Eya2 blk 1, TRPML1 agonist -0.7, TRPML1 inh 8, PINK1 modulator -0.5%, D2 agonist 0.7 and CtBP-E1A inh 2.
Screening Cc1cc(C)c(S(=O)(=O)N2CCCC(C(=O)N3CCCC3)C2)c(C)c1 (stereo not given) returned Six1-Eya2 blk -1, TRPML1 agonist 1.7, TRPML1 inh -24, PINK1 modulator -1.3%, D2 agonist -9.3 and CtBP-E1A inh 18.
O=C(Nc1ccc(Br)cc1)Nc1ccccc1F was read as Six1-Eya2 blk 3, TRPML1 agonist 1.0, TRPML1 inh -1, PINK1 modulator 4.8%, D2 agonist -2.9 and CtBP-E1A inh 3.
Screening CCOC(=O)c1cc(-c2ccc(F)cc2)n(CC(=O)NC(C)CC)c1C (stereo not given) returned Six1-Eya2 blk -5, TRPML1 agonist -1.4, TRPML1 inh -16, PINK1 modulator 0.0% and D2 agonist 0.6.
Screening CNc1nc(C)c(C#N)cc1C(C)=O returned Six1-Eya2 blk 24, TRPML1 agonist -0.6, TRPML1 inh -5, PINK1 modulator 0.7%, D2 agonist -2.9 and CtBP-E1A inh 3.
`COc1ccc(CNC(=O)c2cccc(N3CCCC3=O)c2)cc1` gave Six1-Eya2 blk 4, TRPML1 agonist 2.3, TRPML1 inh 15, PINK1 modulator -0.7%, D2 agonist -3.5 and CtBP-E1A inh -1.
For COC(=O)CCC(=O)OC1(C)C(=O)C=C2C=C(C3CC3)N(Cc3ccco3)C=C2C1=O (stereo not given) the results were Six1-Eya2 blk 0, TRPML1 agonist -0.2, TRPML1 inh -8, PINK1 modulator 0.2%, D2 agonist 4.3 and CtBP-E1A inh 0.
CCCN1CCN(S(=O)(=O)c2cn(C)nc2C)CC1 was read as Six1-Eya2 blk 4, TRPML1 agonist 0.3, TRPML1 inh 16, PINK1 modulator -1.2%, D2 agonist 2.8 and CtBP-E1A inh 6.
NC(=O)CC1SC(N)=NC1=O (stereo not given) was read as Six1-Eya2 blk -1, TRPML1 agonist -0.3, TRPML1 inh 1, PINK1 modulator -0.2%, D2 agonist -1.0 and CtBP-E1A inh 12.
Screening Cc1cccc2nc(CSc3nncn3-c3ccccc3)cn12 returned Six1-Eya2 blk -1, TRPML1 agonist 0.0, TRPML1 inh -4, PINK1 modulator -2.1%, D2 agonist -1.6 and CtBP-E1A inh 0.
For FC(F)Oc1ccccc1NC(=S)Nc1cccnc1 the results were Six1-Eya2 blk 3, TRPML1 agonist 0.4, TRPML1 inh 20, PINK1 modulator 1.7%, D2 agonist -4.8 and CtBP-E1A inh 12.
CCN1CCN(c2ccc(NC(=O)CC3OC(=O)c4ccccc43)cc2C)CC1 (stereo not given) was read as Six1-Eya2 blk 14, TRPML1 agonist -0.1, TRPML1 inh 3, PINK1 modulator -1.0%, D2 agonist -0.4 and CtBP-E1A inh -4.
`Cc1nn(C(C)C(=O)NNC(=S)Nc2ccc(Cl)cc2)c(C)c1[N+](=O)[O-]` (stereo not given) gave Six1-Eya2 blk -1, TRPML1 agonist -0.5, TRPML1 inh -11, PINK1 modulator 9.0%[38.3 µM], D2 agonist 1.5 and CtBP-E1A inh 7.
`CCOc1ccc(OCc2cccc(C(=O)Nc3ccc(CN4CCCCC4)cc3)c2)cc1` gave Six1-Eya2 blk -14, TRPML1 agonist 1.0, TRPML1 inh 1, PINK1 modulator -3.0%, D2 agonist -1.2 and CtBP-E1A inh -20.
`O=C(CCC(=O)N1CCOc2ccccc21)Nc1ccc(F)cc1F` gave Six1-Eya2 blk 7, TRPML1 agonist -0.4, TRPML1 inh 29, PINK1 modulator 0.0%, D2 agonist -2.8 and CtBP-E1A inh 6.
Cc1cc(C)nc(NC(=O)CCC2CCCC2)c1 was read as Six1-Eya2 blk 10, TRPML1 agonist -1.0, TRPML1 inh 7, PINK1 modulator 13%, D2 agonist -2.8 and CtBP-E1A inh 6.
`Cc1cnn2c(C3CC3)ccnc12` gave Six1-Eya2 blk 1, TRPML1 agonist -0.2, TRPML1 inh -11, PINK1 modulator -0.1%, D2 agonist -0.3 and CtBP-E1A inh 7.
C=CCOC(=O)C1=C(C)NC(SCC)=C(C#N)C1c1ccc(Cl)cc1 (stereo not given) was read as Six1-Eya2 blk 21, TRPML1 agonist 1.2, TRPML1 inh -4, PINK1 modulator inconclusive, D2 agonist -1.8 and CtBP-E1A inh 12.
`CCN(CC)C(=O)C1CCN(S(=O)(=O)c2ccc3oc4ccccc4c3c2)CC1` gave Six1-Eya2 blk -3, TRPML1 agonist 0.6, TRPML1 inh 3, PINK1 modulator -5.5%[38.3 µM], D2 agonist 3.7 and CtBP-E1A inh -1.
Screening CCOc1ccccc1C(=O)Nc1ccc2nc3n(c(=O)c2c1)CCCCC3 returned Six1-Eya2 blk -11, TRPML1 agonist 0.4, TRPML1 inh 1, PINK1 modulator -0.2% and D2 agonist 6.1.
Screening C=CCn1c(SCC(=O)N(C)C2CCS(=O)(=O)C2)nnc1-c1ccccc1 (stereo not given) returned Six1-Eya2 blk 2, TRPML1 agonist 0.2, TRPML1 inh -17, PINK1 modulator 5.5%, D2 agonist -4.4 and CtBP-E1A inh -3.
For CCCCN(CCCC)S(=O)(=O)c1ccc(NC(=O)c2ccc([N+](=O)[O-])cc2Cl)cc1 the results were Six1-Eya2 blk -9, TRPML1 agonist 0.0, TRPML1 inh 4, PINK1 modulator 8.1%, D2 agonist 9.0 and CtBP-E1A inh -2.
For COc1ccc(F)cc1S(=O)(=O)Nc1ccc2c(c1)OCCO2 the results were Six1-Eya2 blk -2, TRPML1 agonist -0.1, TRPML1 inh -14, PINK1 modulator 2.7%, D2 agonist 1.4 and CtBP-E1A inh 6.
Screening Cc1ccc(S(=O)(=O)N=Nc2c(O)[nH]c3ccccc23)cc1C returned Six1-Eya2 blk 7, TRPML1 agonist 2.0, TRPML1 inh -24, PINK1 modulator -0.8%, D2 agonist -9.2 and CtBP-E1A inh -2.
For O=C1CCC(=O)O1 the results were Six1-Eya2 blk 6, TRPML1 agonist 0.3, TRPML1 inh -2, PINK1 modulator 1.4%, D2 agonist -1.1 and CtBP-E1A inh 6.
For O=S(=O)(Cc1ccccc1)Nc1ccc(S(=O)(=O)NCC2CCCO2)cc1 (stereo not given) the results were Six1-Eya2 blk 4, TRPML1 agonist 0.8, TRPML1 inh -14, PINK1 modulator -1.8%[38.3 µM], D2 agonist -2.0 and CtBP-E1A inh 8.
Cc1ccc(NS(=O)(=O)c2ccc3c(c2)NC(=O)CC(=O)N3)cc1C was read as Six1-Eya2 blk 0, TRPML1 agonist -0.9, TRPML1 inh 13, PINK1 modulator -0.8%, D2 agonist -0.9 and CtBP-E1A inh -2.
Screening CC1=C(C(=O)NCc2ccccc2)C(c2cccs2)n2ncnc2N1 (stereo not given) returned Six1-Eya2 blk 4, TRPML1 agonist 0.2, TRPML1 inh 1, PINK1 modulator -1.1%, D2 agonist 0.4 and CtBP-E1A inh -8.
`COc1ccc2cc(C(N)=O)c(=Nc3ccccc3)oc2c1` gave Six1-Eya2 blk -4, TRPML1 agonist -0.3, TRPML1 inh -9, PINK1 modulator 1.6%, D2 agonist -6.5 and CtBP-E1A inh -18.
For COC(=O)c1cccc(CN2C(=O)C(C)Oc3ccc(C)cc32)c1 (stereo not given) the results were Six1-Eya2 blk 9, TRPML1 agonist 0.1, PINK1 modulator 4.5%, D2 agonist 11 and CtBP-E1A inh 6.
COCCNC(=O)c1c[nH]c2ccc(S(=O)(=O)N3CCc4ccccc43)cc2c1=O was read as Six1-Eya2 blk 1, TRPML1 agonist -1.0, TRPML1 inh 0, PINK1 modulator 0.7%, D2 agonist -0.9 and CtBP-E1A inh 4.
For O=C(Cn1nnc2ccccc21)NNC(=S)NC1CCCCC1 the results were Six1-Eya2 blk -2, TRPML1 agonist 0.2, TRPML1 inh -8, PINK1 modulator -1.6%, D2 agonist -6.1 and CtBP-E1A inh 12.
For CN1CC(=O)N(CC(=O)Nc2cc(Cl)cc(Cl)c2)C1=O the results were Six1-Eya2 blk 6, TRPML1 agonist -0.1, TRPML1 inh -5, PINK1 modulator 3.9%, D2 agonist -7.6 and CtBP-E1A inh 0.
Screening CSCCC(NC(=O)COc1ccccc1)C(=O)N1CC(C)OC(C)C1 (stereo not given) returned Six1-Eya2 blk -5, TRPML1 agonist 0.7, TRPML1 inh -6, PINK1 modulator 1.3%, D2 agonist -1.8 and CtBP-E1A inh -3.
`Cc1cc(C)cc(NC(=O)Cc2csc(COc3cccc(C)c3)n2)c1` gave TRPML1 agonist 1.5, TRPML1 inh 0 and PINK1 modulator 6.3%.
Cc1ccc(S(=O)(=O)C(CNC(=O)C(C)C)c2cccs2)cc1 (stereo not given) was read as Six1-Eya2 blk 14, TRPML1 agonist -0.5, TRPML1 inh -8, PINK1 modulator -1.8%, D2 agonist -0.9 and CtBP-E1A inh -23.
For CCCCN(C)C(=O)c1ccc(S(=O)(=O)N2CCOCC2)cc1 the results were Six1-Eya2 blk 9, TRPML1 agonist 0.4, TRPML1 inh 0, PINK1 modulator 0.1%, D2 agonist -1.8 and CtBP-E1A inh 8.
Cc1cccc(Oc2ncc(-c3ccc(Cl)cc3)cn2)c1C was read as Six1-Eya2 blk 16, TRPML1 agonist 0.7, TRPML1 inh 63, PINK1 modulator 14%, D2 agonist -2.9 and CtBP-E1A inh 20.
Cc1ccc(S(=O)(=O)N2CC=C(C(=O)NC3CC3)CC2)cc1 was read as Six1-Eya2 blk 4, PINK1 modulator -0.2%, D2 agonist -0.1 and CtBP-E1A inh 7.
For O=C(CCNC(=O)c1ccco1)NCc1ccc(C(=O)O)cc1 the results were Six1-Eya2 blk 0, TRPML1 agonist 0.0, TRPML1 inh 4, PINK1 modulator -0.4%, D2 agonist -3.2 and CtBP-E1A inh -2.
